CapD inh: Bacillus anthracis CapD inhibitors, primary screen, biochemical, fluorescence intensity; purified CapD enzyme, fluorescence intensity read-out; hits give low values; some hits fall short of the stated cut; 140,000 compounds, 0.23% hits; z-score (no concentration beside the values);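 active = z-score under -4 in either of two replicates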;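 note: stock transfer was 100 nL into about 40 µL; score is relative to mean and spread of the plate; one replicate is shown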
AID504770: growth inhibition of E. coli YBA685, primary screen, V. cholerae RctB inhibitors; E. coli YBA685 rctB-dependent plasmid, OD600 growth, 3 h; hits give low values; z-score (no concentration beside the values); 130,000 compounds, 0.27% hits;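 active = z-score under -2 on both plates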;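 note: wells of about 30 µL received 100 nL stock; score is relative to mean and SD of the test wells; the first replicate is given; strong numbers were not always called active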
* hit, by the source's call; . = not tested or not shown; & = joins results of further samples.

1. COc1cc(NC(=O)c2cc(C3CC3)on2)c(OC)cc1Cl
2. CCCN(CCC)C(=O)C(CCC(=O)O)NC(=O)c1ccccc1 (configuration not stated)
3. CN(C)CCOC(=O)C(c1ccccc1)C1(O)CCCC1 (configuration not stated)
4. Cc1ccc(/C=C2\N=C(c3ccc(C4=N/C(=C\c5ccc(C)o5)C(=O)O4)cc3)OC2=O)o1
5. OCC(O)CN1CCN(c2ccccc2)CC1 (configuration not stated)
6. O=c1[nH]c(-c2ccc(C(F)(F)F)cc2)nc2c1CSCC2
7. CCCCOC(=O)c1ccc(N)cc1
8. C=C1c2cccc(O)c2C(O)=C2C(=O)C3(O)C(O)=C(C(N)=O)C(=O)C(N(C)C)C3C(O)C12 (configuration not stated)
9. CC[C@H]1C(=O)OC[C@@H]1Cc1cncn1C
10. Cc1c(C(C)C)c(=O)n(-c2ccccc2)n1C

| Assay by compound | 1 | 2 | 3 | 4 | 5 | 6 | 7 | 8 | 9 | 10 |
| --- | --- | --- | --- | --- | --- | --- | --- | --- | --- | --- |
| AID504770 | 0.25 | 0.25 | 0.8 | . | 0 | 0.8 | 0.2 | -6.9* | 1.2 | 0.6 |
| CapD inh | 1.59 | -1.29&-3.13 | -0.12&-0.745 | -0.435 | 0.13&18.5 | 0.765 | -0.455&-0.22 | -1.36 | . | 0.325 |

11. Cc1oncc1C(=O)Nc1ccc(C(F)(F)F)cc1
12. CN1CCC(=C2c3ccccc3CC(=O)c3sccc32)CC1
13. O=C(O)c1cc(-c2ccccc2)no1
14. O=C(O)CCCCCCCC(=O)O
15. CN1CCN(CCCN2c3ccccc3Sc3ccc(S(=O)(=O)N(C)C)cc32)CC1
16. Nc1ncnc(Nc2ccccc2)n1
17. CCCCC(=O)OC1(C(=O)CO)C(C)CC2C3CCC4=CC(=O)C=CC4(C)[C@@]3(F)[C@@H](O)CC21C (some centres not stated)
18. O=C(c1ccccc1)c1ccc2n1CCC2C(=O)O (configuration not stated)
19. CCC(=O)Nc1cc(C(C)(C)C)on1
20. COc1cc(C)nc(-n2nc(C)cc2OC)n1

| Assay by compound | 11 | 12 | 13 | 14 | 15 | 16 | 17 | 18 | 19 | 20 |
| --- | --- | --- | --- | --- | --- | --- | --- | --- | --- | --- |
| AID504770 | 0.2 | 0.8 | -0.15 | 0.7 | . | 0.95 | . | 0.05 | 0.15 | . |
| CapD inh | -0.2&-0.645 | -0.295&0.28 | . | -0.25 | -0.975 | . | -0.325 | -0.645&-0.23 | . | -0.13 |

Part of the list above in order of number of heavy atoms, rising:
14. O=C(O)CCCCCCCC(=O)O
16. Nc1ncnc(Nc2ccccc2)n1
20. COc1cc(C)nc(-n2nc(C)cc2OC)n1
18. O=C(c1ccccc1)c1ccc2n1CCC2C(=O)O (configuration not stated)
12. CN1CCC(=C2c3ccccc3CC(=O)c3sccc32)CC1
15. CN1CCN(CCCN2c3ccccc3Sc3ccc(S(=O)(=O)N(C)C)cc32)CC1

| Assay by compound | 14 | 16 | 20 | 18 | 12 | 15 |
| --- | --- | --- | --- | --- | --- | --- |
| AID504770 | 0.7 | 0.95 | . | 0.05 | 0.8 | . |
| CapD inh | -0.25 | . | -0.13 | -0.645&-0.23 | -0.295&0.28 | -0.975 |

Further structures follow:
21. CCN1CCN(c2cc(C)c3cc(NC(=S)NCc4ccc(C)cc4)ccc3n2)CC1
22. C#C[C@]1(O)CC[C@H]2[C@@H]3CCC4=CC(=O)CC[C@@H]4[C@H]3CC[C@@]21CC
23. CC(C)(CO)[C@@H](O)C(=O)NCCCO
24. CCOC(=O)Nc1ccc2c(c1)N(C(=O)CCN1CCOCC1)c1ccccc1S2
25. Cc1ccc(C(=O)C(C)CN2CCCCC2)cc1 (configuration not stated)
26. CN=C(N)NC(=O)Nc1c(C)cccc1C
27. CC[C@]12CCCN3CCc4c(n(c5ccccc45)[C@@](O)(C(=O)OC)C1)[C@@H]32
28. O=C(O)CCC(=O)Nc1nc(-c2ccc3ccccc3c2)cs1
29. Cc1ccsc1/C=C/C1=NCCCN1C
30. NC(=O)c1ccc([N+](=O)[O-])cc1Cl

| Assay by compound | 21 | 22 | 23 | 24 | 25 | 26 | 27 | 28 | 29 | 30 |
| --- | --- | --- | --- | --- | --- | --- | --- | --- | --- | --- |
| AID504770 | 0.5 | . | . | 0.55 | 0.9 | -0.75 | . | -0.55 | -0.15 | 0.7 |
| CapD inh | -1.75 | 4.02 | 0.355 | 0.33&-0.05 | -0.065 | 0.135 | 0.05 | 2.62 | 0.045&-0.215 | -0.2 |

Two entries from above, set out differently:
No.	SMILES	AID504770	CapD inh
27	CC[C@]12CCCN3CCc4c(n(c5ccccc45)[C@@](O)(C(=O)OC)C1)[C@@H]32	.	0.05
28	O=C(O)CCC(=O)Nc1nc(-c2ccc3ccccc3c2)cs1	-0.55	2.62

(cont.)
31. CCC(Cc1c(I)cc(I)c(N)c1I)C(=O)O (configuration not stated)
32. NC(=O)NC(=O)Cc1ccccc1
33. CCN(CC)CCOC(=O)C(c1ccccc1)c1ccccc1
34. CCN(CC)S(=O)(=O)c1ccc(C(=O)O)cc1
35. CCCc1cc(C(N)=S)ccn1
36. COC(=O)Nc1nc2ccc(S(=O)c3ccccc3)cc2[nH]1 (configuration not stated)
37. O=C1CCc2cc(OCCCCc3nnnn3C3CCCCC3)ccc2N1
38. CC(C)(C(=O)c1cccnc1)c1cccnc1
39. c1ccc(-c2nc3scc(-c4ccccc4)n3n2)cc1

| Assay by compound | 31 | 32 | 33 | 34 | 35 | 36 | 37 | 38 | 39 |
| --- | --- | --- | --- | --- | --- | --- | --- | --- | --- |
| AID504770 | -0.25 | 0.2 | 0.2 | -1.05 | 0.1 | -0.5 | 0.15 | . | -0.6 |
| CapD inh | -0.015&-0.02 | -1.7 | -0.24&0.01 | -0.235 | . | . | . | 0.12 | -0.41 |

Compound activity (PubChem)

This is a subset, so the mix of outcomes need not match the whole.
